# Source: PubChem
# Biofilm kill mix = mixture kills Candida albicans biofilm cells; 0.02% of 120,000 active; inhibition, % at 7.6 µM; AID 1242; C. albicans biofilm persisters + clotrimazole, fluorescence viability; primary screen in compound mixtures of four per well;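 active means inhibition above 30.3% in the primary screen of four-compound pools, then above 30% when the compound was retested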;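 further: compounds exposed to preformed 24 h biofilms for 48 h; the number belongs to the whole pool; some results filed as inactive read as strong as hits; inactives centre near 12; 0% = biofilm with clotrimazole alone and 100% = kill control; retested singly at about 60 µM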
#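 Probe or stimulus – Clotrimazole 50 µg/mL co-treatment · System – C. albicans biofilms · Schedule – 24 h biofilm formation, then 48 h compound exposure, 37 °C · Evaluation – percent inhibition of biofilm viability · Technique – 2-h Alamar Blue fluorescence, 535/590 nm excitation/emission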
# * hit, by the source's call.
Molecule,Biofilm kill mix
O=C(c1ccc(Br)cc1)N(c1ccccn1)C1CCCCC1,20.3
CC(=O)Nc1ccc(Nc2ccccc2)cc1,11.7
COc1ccc(NC(=O)COC(=O)c2ccc(OCc3ccccc3Cl)c(OC)c2)c(OC)c1,9.2
COc1ccc(Cl)cc1N(CC(=O)N/N=C/c1ccc(OCC(N)=O)cc1)S(C)(=O)=O,20.2
COCCn1c(=NC(=O)CN2C(=O)CCC2=O)sc2cc(S(N)(=O)=O)ccc21,10.7
CCn1c(COc2ccc3c(c2)OCO3)nnc1SCC(=O)O,9.5
COc1cccc(-c2csc(N3CCN(C(=O)Nc4ccc(Cl)cc4)CC3)n2)c1,16.8
Cc1ccccc1-n1nc(C)c2c(C(=O)NN)cc(-c3ccncc3)nc21,6.4
O=C1c2ccc(Oc3cccc([N+](=O)[O-])c3)cc2C(=O)N1c1ccccn1,4.8
CCOC(=O)C1(CC2CCCCO2)CCN(C(=O)Nc2ccc(C(=O)OC)cc2)CC1 (stereo unspecified),7.1
Nn1c(Cc2cccc3ccccc23)nnc1SCc1c(Cl)cccc1Cl,19.8
CCS(=O)(=O)Nc1cccc(C2=NN(C(C)=O)C(c3cccs3)C2)c1 (stereo unspecified),17.0
O=C(/C=C1\NC2(CCCC2)Cc2ccccc21)C(=O)N/N=C/c1ccc(O)c(O)c1,12.9
CCOC(=O)c1cc(C#N)c(C)nc1N(CC)CC,18.7
COc1ccc(C(C(=O)NC(C)(C)C)N(C(=O)Cn2nnc3ccccc32)c2cccc(C(C)=O)c2)cc1O (stereo unspecified),24.0
CC(C)=C1C2CCC1C1C(=O)N(CCc3ccccc3)C(=O)C21 (stereo unspecified),12.6
C/C(=N\NC(=O)C1COc2ccccc2O1)c1ccc(Cl)s1 (stereo unspecified),11.6
COc1ccccc1C1CC(c2ccc(NS(C)(=O)=O)cc2)=NN1C(=O)c1ccccc1 (stereo unspecified),18.6
Cc1cccc(NC(=S)NNC(=O)c2ccc(O)cc2O)c1C,9.2
FC(F)Oc1ccc(NC(=S)NCc2nc3ccccc3[nH]2)cc1,16.9
CC1(C)CC(=O)C(C=Nc2ccc(C(=O)c3ccccc3)cc2N=CC2=C(O)CC(C)(C)CC2=O)=C(O)C1,12.7
CCCCNC(=O)N1CCN(c2ccccc2OC)CC1,13.6
O=C(c1cccc([N+](=O)[O-])c1)N1CCCC(C(=O)N2CCCCCC2)C1 (stereo unspecified),18.8
CCN1C(=O)N/C(=C/c2cc(C)n(Cc3ccccc3)c2C)C1=O,13.8
OCCCCNCc1cc(Br)ccc1OCc1ccccc1,18.7

# Some of the entries so far, as labelled records.
COc1ccccc1C1CC(c2ccc(NS(C)(=O)=O)cc2)=NN1C(=O)c1ccccc1 (stereo unspecified)
- Biofilm kill mix: 18.6
Cc1cccc(NC(=S)NNC(=O)c2ccc(O)cc2O)c1C
- Biofilm kill mix: 9.2
FC(F)Oc1ccc(NC(=S)NCc2nc3ccccc3[nH]2)cc1
- Biofilm kill mix: 16.9
CC1(C)CC(=O)C(C=Nc2ccc(C(=O)c3ccccc3)cc2N=CC2=C(O)CC(C)(C)CC2=O)=C(O)C1
- Biofilm kill mix: 12.7

# Continuation.
Molecule,Biofilm kill mix
COc1ccc(OC)c(-c2nc(CN3CCCCC3c3cccnc3)c(C)o2)c1 (stereo unspecified),-0.5
COc1ccc(NC(=O)c2sc3nc(-c4cccnc4)ccc3c2N)cc1,16.3
CC(=O)n1nc(-c2cccnc2)nc1NCc1cccs1,9.1
Cc1ccc(NS(=O)(=O)c2cc(C(=O)Nc3cccc(N(C)S(C)(=O)=O)c3)ccc2C)c(C)c1,6.9
O=c1cc(Cc2ccccc2)[nH]c(=S)[nH]1,19.9
O=C1COc2ccc(-c3csc(NCCc4ccccc4)n3)cc2N1,12.8
COc1cccc(/C=C2\Oc3cc(OC(=O)N4CCOCC4)ccc3C2=O)c1,23.3
O=C(c1cc([N+](=O)[O-])ccc1Cl)N1CCN(c2ccccc2)CC1,15.6
C(=N\Nc1ccccn1)/c1ccc(N2CCOCC2)cc1,9.1
CC(=O)Nc1ccc(/C=N/N2C(=O)NC(C)(c3ccc(OC(F)F)cc3)C2=O)cc1 (stereo unspecified),6.5
COc1ccccc1NC(=O)c1ccc(CS(=O)(=O)c2ccc(C)cc2)cc1,12.6
N#CCCn1cc(CNCc2ccccc2)c(-c2cccc([N+](=O)[O-])c2)n1,16.9
CN1CCCC(OC(=O)c2ccc(Cl)cc2)C1 (stereo unspecified),14.1
CC(C)(C)NC(=O)N1CCCN(c2ccc(C(F)(F)F)cn2)CC1,-2.3
Cc1c(C(=O)Nc2ccc(F)cc2)oc2ccc(S(=O)(=O)N3CCCC3)cc12,11.7
C[n+]1ccc(C(=O)N/N=C/c2ccco2)cc1,12.2
CC(C)CC(=O)NNC(=S)Nc1ccc(S(N)(=O)=O)cc1,10.3
O=C(COC(=O)C1(c2cccc(F)c2)CCCC1)NCc1ccc2c(c1)OCO2,8.0
COc1ccc(N2CCN(C(=O)c3cc(-c4cccs4)nc4ccccc34)CC2)cc1,21.1
CC(Cc1cccs1)NC(=O)c1cccc(Cl)c1 (stereo unspecified),6.8
COc1ccc(Cl)cc1N(CC(=O)N1CCCCC1)S(C)(=O)=O,20.2
Cc1ccc(NCc2nnc(SCC(N)=O)o2)c(C)c1,10.9
COCc1cc(S(=O)c2ccc(Cl)cc2)nc(C)n1 (stereo unspecified),7.5
C=CCNC(=O)COc1ccc(S(=O)(=O)N2CCCC2)cc1,-8.9
COc1ccccc1/C=C/CN1CCCC(CCC(=O)NCc2ccc(F)c(F)c2)C1 (stereo unspecified),18.6
CCOC(=O)C1(Cc2cccc(Cl)c2)CCCN(C(=O)C2CC2)C1 (stereo unspecified),5.6
COc1ccc(OCCCC(=O)Nc2cccc(SC)c2)cc1,18.7
CCc1cc2c(SCC(=O)N(C)C3CCS(=O)(=O)C3)ncnc2s1 (stereo unspecified),7.3
O=C(NC(=S)Nc1ncccn1)c1ccccc1Cl,11.2
CCN(CC)c1ccc(NC(=O)COc2ccccc2C#N)cc1S(=O)(=O)Nc1ccccc1OC,8.2
CCN(CC)S(=O)(=O)c1ccc(Cl)c(NC(=O)COC(=O)c2c(C)noc2C)c1,19.7
NC(=NCCc1ccccc1)NS(=O)(=O)c1ccccc1,16.0
CCOC(=O)C1(Cc2cccc(Cl)c2)CCCN(C(=O)c2cccc(C)n2)C1 (stereo unspecified),21.2
O=C(COC(=O)C1CC1)Nc1ccc2c(c1)OCO2,7.5
CC(C)CC(=O)NC(=S)Nc1ccc(S(=O)(=O)Nc2nccs2)cc1,15.0
CCc1ccc2c(c1)c1nnc(NN)nc1n2C,12.1
CC(C)C(=O)O/N=C1\CCS(=O)(=O)c2sccc21,12.4
COc1ccc(OCc2nnc(SCC(=O)N3CCOCC3)o2)cc1,9.1
O=C(Cc1nc2ccccc2[nH]1)c1cccc([N+](=O)[O-])c1,21.9
C=COCCNC(=S)N1CCOCCOCCN(C(=S)NCCOC=C)CCOCCOCC1,18.5
COc1ccc(S(=O)(=O)N2CCNC(=O)C2)cc1Br,0.9
CC(C)N(C(=O)Cn1cc(SCC(N)=O)c2ccccc21)C(C)C,11.8
Cn1c(-c2cccc([N+](=O)[O-])c2)cnc1NCc1ccc(C#N)cc1,9.3
CC(=O)OCC(OC(C)=O)C(OC(C)=O)C(OC(C)=O)C(=O)Nc1ccccc1 (stereo unspecified),10.3
CNc1ncnc(Sc2ccc(Cl)cc2)c1[N+](=O)[O-],3.8
C/C=C/c1ccc(OCCCCOc2ccc(OC)cc2)c(OC)c1,20.5
S=C(NCc1cccs1)Nc1cccc(Cl)c1Cl,2.9
CC(=O)Cc1nsc(NC(=O)c2ccc(-c3ccc(Cl)c(Cl)c3)o2)n1,17.9
O=C(CSc1ccc(-c2cccs2)nn1)N1CCCCC1,6.4
O=C(CSc1ncnc2c1sc1ccccc12)Nc1ccc(Br)cc1,14.4

# Carrying on.
Molecule,Biofilm kill mix
CCOC(=O)C1CCCN(C(=S)Nc2cccc(Cl)c2)C1 (stereo unspecified),7.4
O=C(COC(=O)c1cc(Br)ccc1Cl)NC1CCCC1,24.8
CCOc1ccccc1NC(=O)/C(C#N)=C/c1c(C)nn(-c2ccc(F)cc2)c1Cl,11.1
O=C(c1ccc(S(=O)(=O)N2CCCCCC2)cc1)N(c1ccccn1)C1CCCCC1,-3.0
COc1cc2c(cc1NC(=O)Cc1ccc(C)cc1)oc1ccccc12,12.2
Cc1ccc(C(=O)N(CC(=O)NC2CCCCC2)c2ccccc2F)s1,21.7
CC12COC3(C(=O)Nc4ccc([N+](=O)[O-])cc4)CC1CCC32C (stereo unspecified),5.4
C=C1C(C(=O)Nc2ccc(OCC)cc2)C1C(=O)Nc1ccc(OCC)cc1 (stereo unspecified),13.7
CC(=O)CCn1c(=O)n(CCC(C)=O)c(=O)n(CCC(C)=O)c1=O,9.1
O=C(CC1C(=O)NCCN1C/C=C/c1ccccc1)NCCc1ccncc1 (stereo unspecified),16.5
CC(C)C(=O)NC(CC(=O)O)c1ccccc1 (stereo unspecified),17.2
COc1ccc(N(C)S(=O)(=O)c2cccc(C(=O)NC3CCCCC3C)c2)cc1 (stereo unspecified),4.4
COc1ccc(NC(=O)C2CCCN(S(=O)(=O)c3cccc4nonc34)C2)cc1OC (stereo unspecified),6.1
COc1ccc(/C=N/n2cncn2)cc1Cn1cc([N+](=O)[O-])cn1,17.9
O=C(O)C1SCCN1S(=O)(=O)c1ccc(N=NN2CCOCC2)cc1 (stereo unspecified),26.6
CC(C)Oc1ccc(C(CC(=O)O)NC(=O)C(Sc2ccccc2)c2ccccc2)cc1 (stereo unspecified),14.3
COc1cccc2cc(-c3ccccc3)c(=O)oc12,0.0
O=c1cc(C(F)(F)F)nc(-c2cccnc2)[nH]1,27.1
COc1cccc2cc(S(=O)(=O)c3ccccc3)c(=Nc3ccc4c(c3)OCCO4)oc12,13.8
NS(=O)(=O)c1ccc(NC(=O)C(=O)NCCC(=O)O)cc1,14.5
COc1cc(N=C(N)N=C(N)N)cc(OC)c1,30.6
Cc1ccc(C(=O)O/N=C2/CC3CCC2(C)[C@@]3(C)CBr)cc1 (stereo partly specified),26.5
Cc1ccc(CSCC(=O)NCc2cccnc2)cc1,21.4
COc1cc(OC)cc(C(=O)NCCSc2c[nH]c3ccccc23)c1,25.7
CCN(CC)S(=O)(=O)c1ccc(N2CCOCC2)c(NC(=O)CCC2CCCCC2)c1,7.6
CO/N=C/c1ccc(OC)c(Oc2nc(OC)cc(OC)n2)c1,-7.3
CN(C)CCNc1cnn(-c2ccccc2)c(=O)c1Cl,7.0
CCc1cc2c3c(c1)C1(C(=O)N3C(C)(C)CC2C)C(C#N)=C(N)N2C(=C1C#N)Nc1ccccc12 (stereo unspecified),16.0
CC(C)c1nc2sc(C(=O)O)c(N)c2c2c1CCCC2,27.5
Cc1ccccc1S(=O)(=O)NC1OC(=O)C(Oc2ccccc2)=C1Br (stereo unspecified),13.6
CN(C)/C=C/C(=O)c1ccc(Br)s1,9.6
CCn1c(SCC(=O)Nc2ccc(C)cc2)nnc1-c1ccc(O)cc1,3.8
O=C(NNC(=O)c1ccccc1[N+](=O)[O-])Nc1ccccc1C(F)(F)F,12.4
Cc1cccc(C)c1NC(=O)c1cc(S(=O)(=O)N2CCOCC2)ccc1F,15.1
CC(=O)[C@@]1(O)CC[C@H]2[C@@H]3CCC4=CC(=O)CC[C@]4(C)[C@H]3CC[C@@]21C,18.8
CCCCNc1nc2sc3c(c2c(=O)n1-c1cccc(Cl)c1)CCN(C)C3,14.1
O=C1S/C(=C\c2ccc(Cl)cc2)C(=O)N1CCn1cnnn1,17.3
O=C(O)C1CCCN(S(=O)(=O)c2ccc3c(c2)OCCO3)C1 (stereo unspecified),17.2
COc1ccc2nc(/C(C#N)=C\c3ccc(Oc4ccc([N+](=O)[O-])cn4)cc3)[nH]c2c1,11.3
Cc1cccc(N/C=C(\[N+](=O)[O-])S(=O)(=O)c2ccccc2)c1C,24.1
OCCNCCSc1ccc(Cl)cc1,30.2
O=C(CCn1c(=S)oc2ccccc21)N1CCN(c2ccc(F)cc2)CC1,1.1
COc1cccc(CNC(=O)CCC2CCCN(C(=O)c3ccc(C)nc3)C2)c1 (stereo unspecified),24.6
Cc1ccc2cc(C#N)c(NCCNC(=S)NCCCN(C)C)nc2c1C,12.7
N#C/C(=C\c1cccc(NC(=O)c2ccccc2Cl)c1)C(=O)NCCc1ccccc1,18.2
COc1cc(/C=C(\NC(=O)c2ccccc2)C(=O)NCCO)c([N+](=O)[O-])cc1OC,8.4
COc1cccc(CN2CCNC(=O)C2CC(=O)NCCOc2cccnc2)c1 (stereo unspecified),8.6
CC(C)CC(=O)Nc1ccc2c3c(cccc13)CC2,14.1
CC(/C=C/c1ccc(N(C)C)cc1)=N/N=C1/NC(=O)CC(C(=O)Nc2ccc(Cl)cc2)S1 (stereo unspecified),6.8
CC(=O)Nc1ccccc1C(=O)C(=O)Nc1cccc(Br)c1,0.8

# Grouped by structure, those above with a furan ring, fused or not.
Molecule,Biofilm kill mix
Cc1c(C(=O)Nc2ccc(F)cc2)oc2ccc(S(=O)(=O)N3CCCC3)cc12,11.7
C[n+]1ccc(C(=O)N/N=C/c2ccco2)cc1,12.2
CC(=O)Cc1nsc(NC(=O)c2ccc(-c3ccc(Cl)c(Cl)c3)o2)n1,17.9
COc1cc2c(cc1NC(=O)Cc1ccc(C)cc1)oc1ccccc12,12.2

# A portion of the library; rates above refer to the full screens.
